Source: PubChem BioAssay (National Center for Advancing Translational Sciences (NCATS))
mIDH1 inhibitor: human IDH1 R132H inhibition; 0.093% of 390,000 active; Potency, µM (top dose mostly 76.6 µM), for the others: top-dose activity change, negative = inhibition, usual class: inhibitors; O75874; IDH1-R132H enzyme, NADPH consumption, diaphorase/resazurin fluorescence; AID 602179; further: potency means the concentration at half of the fitted maximal effect; on the % scale 0 is the no-effect control and ±100 the full control effect; nearly all actives have a fitted effect of over 65% in size
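IDH1-R132H (0.5 ug/mL dispensed) in pH 7.5 Tris buffer was preincubated 30 min with compound, then given a substrate mix of 0.016 mM NADPH and 2 mM alpha-KG for 80 min at room temperature; remaining NADPH was read by diaphorase/resazurin fluorescence.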
TrxR1 substrate: substrates of rat thioredoxin reductase 1; O89049; purified TrxR1 substrate turnover, NADPH consumption readout; Potency, µM (titrated, usually from 114 µM), inactives show at the highest dose activity change, negative = substrate turnover; 0.01% of 390,000 active; further: potency means the concentration at half of the fitted maximal effect; on the % scale 0 is the no-effect control and ±100 the full control effect; nearly all actives have a fitted effect of over 50% in size
Target sequence (O89049 whole entry, looked up): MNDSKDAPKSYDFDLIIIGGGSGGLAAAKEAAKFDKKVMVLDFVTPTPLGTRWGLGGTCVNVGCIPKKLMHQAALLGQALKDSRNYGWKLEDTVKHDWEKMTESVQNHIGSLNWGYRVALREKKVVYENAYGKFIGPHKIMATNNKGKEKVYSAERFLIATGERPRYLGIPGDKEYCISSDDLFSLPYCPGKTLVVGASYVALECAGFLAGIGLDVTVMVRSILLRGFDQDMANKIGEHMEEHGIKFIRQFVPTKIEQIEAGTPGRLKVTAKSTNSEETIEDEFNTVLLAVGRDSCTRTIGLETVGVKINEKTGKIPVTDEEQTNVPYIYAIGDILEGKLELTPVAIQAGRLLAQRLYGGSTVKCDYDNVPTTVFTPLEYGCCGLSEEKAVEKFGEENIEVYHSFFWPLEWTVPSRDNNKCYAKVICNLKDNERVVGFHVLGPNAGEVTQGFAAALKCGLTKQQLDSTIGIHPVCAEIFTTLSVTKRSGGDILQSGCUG
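Rat TrxR1, dispensed at 90 nM, was prereduced with 400 uM NADPH (final) for 5 min at ~22 deg C, then incubated with compound 15 min before 400 uM selenite. A first-read NADPH fluorescence drop versus no-compound background flagged substrates.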
PI4K2A block: blocks human PI4K2A kinase activity | activity change, negative = inhibition, % at 76.9 µM | AID 1346378 | Q9BTU6 | purified PI4K2A, ADP-Glo luminescence, 1 h; stronger effect = lower value | 0.13% of 420,000 active; in the data active means activity change below about -50%; inconclusive means mostly about -30% to -49%;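 further: -100% = wells without enzyme as full effect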
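ADP-Glo luminescence measured ADP generated by PI4K2A enzyme (4 ug/mL before mixing) with 1.2 mM PI substrate (pre-mix) and 300 microM ATP (pre-mix). Tris pH7.5 buffer with MgCl2, Triton X-100; 1 h reaction at ambient temperature.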
HP1b chromo inh: blocks HP1-beta chromodomain binding to methylated histone tails; 0.56% of 390,000 active; AlphaScreen HP1-beta / biotin-H3K9me3 peptide binding; Potency, µM (series often up to 114 µM), inactives show at the top dose activity change, negative = inhibition, most hits filed as inhibitors; P83916; further: potency means the concentration at half of the fitted maximal effect; nearly all actives have a fitted effect of over 70% in size; inactives centre near 23
Target sequence (P83916 whole entry, looked up): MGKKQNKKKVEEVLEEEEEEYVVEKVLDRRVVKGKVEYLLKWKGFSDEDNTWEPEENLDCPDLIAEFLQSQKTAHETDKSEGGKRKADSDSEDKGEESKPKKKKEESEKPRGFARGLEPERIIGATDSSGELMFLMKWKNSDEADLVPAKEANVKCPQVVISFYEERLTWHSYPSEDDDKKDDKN
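HP1-beta protein (50 nM final) preincubated 30 min at room temperature with biotinylated H3(1-18)K9me3 peptide (50 nM) in PBS pH 7.4, 0.01% Tween-20, then compound added for 30 min. AlphaScreen streptavidin donor/nickel chelate acceptor beads (10 ug/mL final), 30 min dark, luminescence read.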
Pin1 inh: human Pin1 inhibition | Pin1 FP peptide displacement, HiFluor488, 10 min | AID 504891 | Potency, µM (top dose mostly 115 µM), without a hit: at the top dose activity, negative = inhibition, most hits filed as inhibitors | 0.009% of 390,000 active | Q13526; active means well fitted inhibition curve with a large enough effect in the polarisation, with a control signal flat, not every such curve was filed as active; inconclusive means small, poorly fitted or top-dose-only effect, or effect the other way, or a change in a side signal; inactive means no such curve, though single readings can be large or run the other way; the % refers to the polarisation; further: potency means the concentration at half of the fitted maximal effect; on the % scale 0 is the no-effect control and ±100 the full control effect
Target sequence (Q13526 whole entry, looked up): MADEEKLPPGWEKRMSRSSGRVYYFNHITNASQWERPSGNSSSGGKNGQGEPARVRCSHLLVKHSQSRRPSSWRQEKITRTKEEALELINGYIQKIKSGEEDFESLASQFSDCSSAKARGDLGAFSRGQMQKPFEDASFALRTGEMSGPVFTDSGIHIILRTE
GLS inh: blocks human kidney-isoform glutaminase activity; 0.21% of 410,000 active; GLS enzymatic activity, qHTS titration; O94925; Potency, µM (titrated, usually from 45.5 µM), for the others: top-dose activity change, negative = inhibition, most hits filed as inhibitors; further: potency means the concentration at half of the fitted maximal effect; on the % scale 0 is the no-effect control and ±100 the full control effect
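hKGA in 45 mM KH2PO4 pH 8.2, 0.02% Tween-20 with pin-transferred compounds; 1 mM L-glutamine (stock) plus glutamate oxidase/HRP/Amplex Red coupling added. Fluorescence read initially and after 30 min at RT.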
TrxR1 inh: blocks rat thioredoxin reductase 1; O89049; recombinant rTrxR1, NADPH fluorescence consumption, selenite substrate; Potency, µM (titrated, usually from 114 µM), for the others: top-dose activity change, negative = inhibition, hits mostly inhibitors; 1% of 390,000 active; further: potency means the concentration at half of the fitted maximal effect; on the % scale 0 is the no-effect control and ±100 the full control effect; nearly all actives have a fitted effect of over 65% in size
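Rat TrxR1 (90 nM in the dispensed reagent) was pre-reduced with 400 uM NADPH for 5 min at room temperature, then incubated with compound for 15 min. After 400 uM selenite was added, NADPH fluorescence (Ex 340/Em 450 nm) was followed for 8 min.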
Tb PGK inh: blocks T. brucei phosphoglycerate kinase; P07378; PGK/GAPDH coupled, Kinase-Glo luminescence, 60 min; Potency, µM (titrated, usually from 57.5 µM), for inactives: top-dose activity change, negative = inhibition, usual class: inhibitors; 0.043% of 380,000 active; AID 602233; further: potency means the concentration at half of the fitted maximal effect; on the % scale 0 is the no-effect control and ±100 the full control effect; nearly all actives have a fitted effect of over 60% in size
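Luminescent ATP detection (Kinase-Glo Plus) follows a 60-minute room-temperature incubation, with wells lacking PGK as controls. Buffer: 100 mM TEA (pH 7.6), 5 mM MgCl2, 0.01% Tween-20. Coupling enzyme GAPDH (100 nM final) supplies unstable 1,3-BPG in-well.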
* hit, by the source's call; i = inactive; ? = inconclusive; · = no result given; [ ] = another dose, or the depositor's remark. Unless noted, the call rests on the fitted dose curve; in most records, active means well fitted curve in the direction sought with a large enough effect; inconclusive means small, poorly fitted or top-dose-only effect, or another doubt; inactive means no such curve, though single readings can be large; an effect the other way counts as inactive or inconclusive. The list is partial; rates above refer to the full screens.

mol,mIDH1 inhibitor,TrxR1 substrate,PI4K2A block,HP1b chromo inh,Pin1 inh,GLS inh,TrxR1 inh,Tb PGK inh
Cc1ccccc1C(=O)Nc1cc(-c2ccc(Cl)cc2)nn1-c1ccccc1,-2%,-2%[57.1 µM],-4,24%[57 µM],-5%,2%,7%[57.1 µM],-6%
CN1CCNC(=O)C1CC(=O)NCCC1=CCCCC1 (stereo unspecified),20%,4%,1,36%,3%,-4%,16%,0%
COc1cc2cnc(-c3ccccc3)c(-c3ccc(C#N)cc3)c2cc1OC,32µM*,13%,-7,31%,11%,4%,10%[57.1 µM],-2%
COCCCNC(=S)NNC(=O)C1CC1c1ccc(C(C)(C)C)cc1 (stereo unspecified),9%,1%,-3,33%,13%,-2%,8%[0.0914 µM],-7%
O=c1c2c(nc3c(-c4ccccc4)c[nH]n13)CCC2,0%,18%,-7,20%,-3%,23%,4%,-5%[11.5 µM]
O=C(Nc1ccc(F)cc1)c1cc(S(=O)(=O)N2CCOCC2)cs1,14%,0%,-8,24%,-1%,1%,7%,-10%
CCOc1ccc(C=NC23CN4CN(CN(C4)C2)C3)cc1,1%,3%[57.1 µM],2,36%[activator],0%,1%,3%[57.1 µM],-2%
CCOC(=O)N1CCC(NC(=O)c2cc3c(-c4cccc(OC)c4)nn(C)c3s2)CC1,3%,71%[activator],3,52%[activator],3%,-1%,117%[activator],0%
Cc1ccc(C)c(NS(=O)(=O)c2cc(C(=O)Nc3cccc(N(C)S(C)(=O)=O)c3)ccc2C)c1,0%,-2%,2,3%,5%,0%,21%,14%
CCOC(=O)c1ccc(-c2ccc(/C=C(\C#N)C(=O)NCC3CCCO3)o2)cc1 (stereo unspecified),-1%,4%,0,14%,?,0%,3%,-8%
O=C(CNC(=O)Cn1cnc2sc3c(c2c1=O)CCCC3)NCc1ccccn1,4%,4%[2.29 µM],-3,10%,-1%,-1%,4%[2.29 µM],-7%
CCc1ccc(NC(=O)Nc2cn(C)c(=O)c3ccccc23)cc1,-13%,0%[57.1 µM],?,31%,-2%,4%,14%[57.1 µM],i
CCCCCn1c(N)c(C#N)c2nc3ccccc3nc21,5%,103%[activator],8,62%[activator],3%,1%,9%,·
COc1cccc(OC)c1C1=NC(C)(C)CO1,0%,12%[57.1 µM],-2,17%,4%,9%,4%[57.1 µM],-1%
COCCNC(=O)C(C)N1c2cccc3cccc(c23)S1(=O)=O (stereo unspecified),6%,15%,-2,-1%,-5%,-3%,4%,-2%
CCC(=O)/C=C1\Sc2ccc(OC)cc2N1CC,-2%,-9%,2,26%,4%,14%,-3%,-5%
CCN(CC)CC(=O)Nc1ccc(C)cc1C(=O)c1ccccc1,-2%,6%,-4,9%,-3%,6%,14%,-4%
Cc1ccc(OCC(O)Cn2c3ccccc3c3ccccc32)cc1 (stereo unspecified),6%,-6%,-1,64%[activator],0%,1%,-1%,-4%
Cc1[nH]n2c(=O)c3c(nc2c1-c1cccc2ccccc12)CCC3,-5%,7%,0,41%[activator],5%,1%,-2%,-4%
COc1ccc(NC(=O)c2cc(S(=O)(=O)N3CCOCC3)cs2)cc1,-5%,-15%,2,16%,0%,-2%,-15%,-6%
COc1ccc(CC(=O)Nc2ccc(-c3csc(C)n3)cc2)cc1,8%,-4%,5,55%[activator],8%,-10%,0%,-2%
Cc1c(C(=O)N2CCOCC2)oc2c1-c1nn(CC(=O)NCc3cccc(F)c3)cc1CC2,13%,-3%,-29,30%,8%,-7%,-20%,7%
Cc1ccc(-c2[nH]n3c(=O)c4c(nc3c2C)CCCC4)cc1,-4%,12%,6,30%,-2%,·,5%,-1%
CCN(CC)c1ccc2nc3c(=O)n(C)c(=O)n(C)c3nc2c1,·,6%,-8,17%,?,1%,6%,·
COCCN1C=C2C(=O)C(C)(OC(=O)C3CCCC3)C(=O)C=C2C=C1c1ccsc1 (stereo unspecified),21%,-21%,-8,25%,-12%,0%,-12%,-2%
Cc1cccn2c(=O)c(C(=O)NC3CCCCC3C)c(O)nc12 (stereo unspecified),10%,31%[activator],-6,47%[activator],-1%,8%,14%,-3%
CCN1CCCC1CNS(=O)(=O)c1cccc(C(F)(F)F)c1 (stereo unspecified),3%,8%[57.1 µM],4,17%,-17%,11%,29%[57.1 µM],0%
Cn1c(C(=O)Nc2ccc(OC(F)(F)F)cc2)cc2c(=O)n3ccccc3nc21,0%,-6%,-9,28%,0%,8%,-5%,15%
Cc1ccc(S(=O)(=O)N2CCN(C(=O)COC(=O)/C=C/c3ccc(OC(F)F)cc3)CC2)cc1,-3%,-17%,1,12%,4%,-1%,-15%,-3%
COc1cccc(CNC(=O)c2c(C)oc3ncnc(N4CCOCC4)c23)c1,5%,3%,-4,23%,-3%,1%,5%,-8%

Copied from the listing, 2 compounds:
mol,mIDH1 inhibitor,TrxR1 substrate,PI4K2A block,HP1b chromo inh,Pin1 inh,GLS inh,TrxR1 inh,Tb PGK inh
CCCCCn1c(N)c(C#N)c2nc3ccccc3nc21,5%,103%[activator],8,62%[activator],3%,1%,9%,·
COc1cccc(OC)c1C1=NC(C)(C)CO1,0%,12%[57.1 µM],-2,17%,4%,9%,4%[57.1 µM],-1%

A few values from the results shown:
In TrxR1 inh, Cc1c(C(=O)N2CCOCC2)oc2c1-c1nn(CC(=O)NCc3cccc(F)c3)cc1CC2 has -20%
In TrxR1 substrate, Cc1cccn2c(=O)c(C(=O)NC3CCCCC3C)c(O)nc12 (stereo unspecified) has 31%[activator]
In GLS inh, CCN1CCCC1CNS(=O)(=O)c1cccc(C(F)(F)F)c1 (stereo unspecified) has 11%
In TrxR1 substrate, CCc1ccc(NC(=O)Nc2cn(C)c(=O)c3ccccc23)cc1 has 0%[57.1 µM]
In mIDH1 inhibitor, COCCNC(=O)C(C)N1c2cccc3cccc(c23)S1(=O)=O (stereo unspecified) has 6%
In HP1b chromo inh, Cn1c(C(=O)Nc2ccc(OC(F)(F)F)cc2)cc2c(=O)n3ccccc3nc21 has 28%
In Tb PGK inh, Cc1[nH]n2c(=O)c3c(nc2c1-c1cccc2ccccc12)CCC3 has -4%

(more compounds)
canonical_smiles,mIDH1 inhibitor,TrxR1 substrate,PI4K2A block,HP1b chromo inh,Pin1 inh,GLS inh,TrxR1 inh,Tb PGK inh
C/C(=N\NC(=O)c1ccc([N+](=O)[O-])cc1)c1cc2ccccc2oc1=O,3%,-16%,3,5%,-1%,-14%,?,-1%
O=C(c1cc2nc(-c3cccs3)cc(C(F)(F)F)n2n1)N1CCCc2ccccc21,2%,3%,-2,36%,32%[activator],4%,12%,-9%
COc1ccc(C(=O)Nc2nc3n(n2)C(c2ccc(F)cc2)C=C(c2ccc(Cl)cc2)N3)cc1 (stereo unspecified),-21%,-8%,-2,23%,-8%,-27%,6%,7%
COc1ccc(NC(=O)C(C)N2c3cccc4cccc(c34)S2(=O)=O)c(OC)c1 (stereo unspecified),5%,7%,-2,41%[activator],2%,-4%,25%,-1%
COc1cccc(Nc2nc3ccccc3nc2-n2nc(C)cc2C)c1,-10%,-1%,-3,224%[activator],1%,5%,-6%,-2%
CC(C)(C)c1ccc(C(=O)NCCn2c(N)c(C#N)c3nc4ccccc4nc32)cc1,-5%,71%,-2,27%,39%[activator],-1%,46%,-3%
O=C(Nc1ccccc1C(=O)N1CCCCC1)c1ccccc1C(F)(F)F,6%,2%,-3,21%,-3%,-1%,17%,0%
Cc1ccc(NC(=O)c2cn3c4c(ccc(Cl)c4c2=O)OC(C)C3)cc1C (stereo unspecified),14%,0%,1,31%,6%,2%,24%,i
Cc1[nH]n2c(=O)c(C#N)c(-c3ccccc3)nc2c1-c1ccccc1,-10%,-4%[57.1 µM],1,7%,0%,17%,-3%[57.1 µM],-17%
CCC(C)(C)n1nnnc1C(c1ccc(O)cc1)N1CCc2ccccc2C1 (stereo unspecified),-3%,7%[57.1 µM],-1,?,44%[activator],4%,16µM*,6%
CCN1CCCC1CNS(=O)(=O)c1c(C)cc(C)cc1C (stereo unspecified),12%,-5%[57.1 µM],-3,7%,3%,-1%,6%[57.1 µM],-3%
